Screens (PubChem BioAssay)
Bead autofluor = counter-screen for toxin protease inhibitors: compound fluorescence; compound autofluorescence counterscreen, microsphere flow cytometry; hits give high values; fluorescence intensity (concentration not given with the values); 3.1% of 360,000 active; AID 624483;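 active = at least 3 SD above the mean of all compounds, about 16000 in these data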;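 also: 100 nL of 1 mM stock went into each well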
Active calls of the source: *. An excerpt, so the mix of outcomes need not match the whole.

SMILES	Bead autofluor
COc1cc(C(=O)NC(CCSC)C(=O)Nc2ccc(N3CCOCC3)cc2)cc(OC)c1OC (configuration not stated)	2914
O=C1C(=Cc2ccncc2)CCCc2ccccc21	3025
COc1cccc(C(C)(O)c2nc(-c3ccc(F)c(Cl)c3)cs2)c1 (configuration not stated)	2930
CCc1nc2c(OCc3ccc(C(=O)N(C)C)cc3)cccn2c1N(C)C(=O)Nc1ccccc1OC	2900
CC(=O)NC(C)(c1ccccc1)c1nc(-c2cncnc2)cs1 (configuration not stated)	2985
CCCC(=O)N1CCC1(C)C(=O)NS(=O)(=O)c1cc2c(cc1C)CCCS2(=O)=O (configuration not stated)	4030
COCCNC(=O)C1(C)CCN(C(=O)c2cccc(C)c2C)C1 (configuration not stated)	3582
CCOC(=O)[C@]12CCC=C1N(Cc1ccccc1)C(=O)[C@H](CC(=O)NCc1ccc(OC)c(OC)c1)C2	5656
CC(O)(c1ccc(F)c(F)c1)c1nc(-c2ccc(F)c(Cl)c2)cs1 (configuration not stated)	3892
C#CCNC(=O)C[C@@H]1C[C@@]2(C(=O)OC)CCCCC=C2N(CCCCCCCC)C1=O	6170
O=C(NC(c1ccc(Cl)cc1)c1cnccn1)C1CCN(CCCc2ccccc2)CC1 (configuration not stated)	3423
COc1cc(C=CC(=O)c2ccccc2)cc(OC)c1OC	4120
CN(NS(=O)(=O)c1ccc([N+](=O)[O-])cc1)c1ccccc1	3912
c1ccc2c(-c3cc(NCc4ccncc4)n4nccc4n3)cccc2c1	3135
CCCCN(C)C(=O)c1ccc(Nc2nc(C(N)Cc3ccccc3)cs2)nc1 (configuration not stated)	4178
COc1ccc(-c2coc3c(C(=O)NCc4ccc(F)c(F)c4)cccc23)c(C)c1	3615
CCCN(CCC)Cc1cc(=O)oc2cc(C)ccc12	5560
C[C@H](CO)N1C[C@H](C)[C@H](CN(C)S(C)(=O)=O)OCc2cnnn2CCCC1=O	3016
O=C(NC(Sc1ccc(Cl)cc1)C(=O)O)c1ccccc1 (configuration not stated)	2876
CC(C)(C)c1ccc(C(=O)N2CCC2(C)C(=O)NCc2ccc3c(c2)OCO3)cc1 (configuration not stated)	3759
COc1ccc([C@H]2C[C@@H](O)[C@H](n3cc(-c4ccc(F)cc4)nn3)CN2C(=O)C2CCCCC2)cc1	2778
CO[C@H](C(=O)N(C)C[C@@H]1OCc2ccccc2-c2c(n(C)c3ccccc23)C(=O)N([C@H](C)CO)C[C@@H]1C)c1ccccc1	3660
CC1(C(=O)Nc2cccc(Oc3ccccc3)c2)CCN1Cc1cccc2c1OCO2 (configuration not stated)	4043
CC1CCCCC12NC(=O)N(CC(=O)NCc1cccs1)C2=O (configuration not stated)	3644
C(=C\c1ccccc1)/CN1CCN(C(c2ccnc3ccccc23)c2nnnn2-c2ccc3c(c2)OCCO3)CC1 (configuration not stated)	6564
COc1ccccc1CNc1nc(NCC2CC2)nc2ccsc12	3914
C[C@H]1CN([C@@H](C)CO)C(=O)c2cc(Br)cnc2O[C@H]1CN(C)C(=O)c1cnccn1	3040
COc1cccc(CN2CCN(C(=O)[C@H]3O[C@@H](n4cnc5c(N)ncnc54)[C@H](O)[C@@H]3O)CC2=O)c1	4454
CC1=C(C(=O)N(C)C)CC(CC(=O)NCc2ccco2)C(=O)N1CCC1=CCCCC1 (configuration not stated)	2818
C[C@@H]1CN([C@@H](C)CO)C(=O)c2c(c3ccccc3n2C)-c2ccccc2CO[C@H]1CN(C)S(=O)(=O)c1ccc(C(F)(F)F)cc1	3335
COc1ccc(S(=O)(=O)NC(=O)C2(C)CCN2C(=O)C2(c3ccc(Cl)cc3)CCC2)cc1 (configuration not stated)	2919
CN(C)CCN1CCN(C2CN(Cc3ccc(F)cc3)S(=O)(=O)C2)CC1 (configuration not stated)	4205
CCCN(C)C[C@H]1OCc2cnnn2CCCC(=O)N([C@H](C)CO)C[C@@H]1C	4140
COc1ccc([C@@H]2CC(=O)[C@@H]3CN(S(=O)(=O)c4ccc(C)cc4)[C@H](c4ccccc4)C[C@@H]3N2S(=O)(=O)c2ccccc2)cc1	4544
O=C1C(=Cc2ccc(F)cc2)Cc2ccccc21	6128
O=S(=O)(Nc1ccc(NS(=O)(=O)c2ccccc2)cc1)c1ccccc1	3420
CCOC(=O)C1(C)CCCN(C(=O)c2cccc(OC(F)(F)F)c2)C1 (configuration not stated)	2797
Cc1ccsc1C(=O)N1CCC1(C)C(=O)NS(=O)(=O)c1ccc(C#N)cc1 (configuration not stated)	3764
CCCCCCN1C[C@@H](O)[C@H](n2cc(C3CC3)nn2)C[C@@H]1c1ccc(Cl)cc1	3084
CC1=C(C(=O)N(C)C)CC(CC(=O)NC2CCCC2)C(=O)N1CCC1=CCCCC1 (configuration not stated)	3785
CC(C)C[C@@H](CN1CCC[C@H]1CN1C(=O)C(=O)NC[C@@H]1Cc1ccc(O)cc1)N1C[C@H](Cc2ccc(O)cc2)N(CCc2ccccc2)C(=O)C1=O	6395
COc1ccc(CC(=O)Nc2ccc(S(=O)(=O)Nc3cc(C)nc(C)n3)cc2)cc1OC	3960
CCN(CC)C(=O)C1=C(C)N(Cc2ccc(C(C)(C)C)cc2)C(=O)C(CC(=O)NC2CC2)C1 (configuration not stated)	2880
O=C1NCN(c2ccccc2)C12CCN(C(c1ccnc3ccccc13)c1nnnn1C1CCCC1)CC2 (configuration not stated)	5655
CCS(=O)(=O)N1Cc2cc(C(=O)N(C)C)nc(-c3cccc(-c4ccc(F)cc4)c3)c2[C@@H]1CCO	5676
COc1cccc(C(=O)N2CCC[C@H]2C(=O)N2CCC[C@H]2C(=O)N(C)Cc2ccccc2)c1	6174
CC(C)CNC(=O)c1cccc2c(-c3ccc(F)c(F)c3)coc12	3539
C[C@@H]1CN([C@@H](C)CO)C(=O)c2cc(C#CCN(C)C)cnc2O[C@H]1CN(C)Cc1ccc2c(c1)OCO2	4245
CCNC(=O)C1(C)CCCN1C(=O)c1ccc(-c2ccccc2)cc1 (configuration not stated)	4043
COC(=O)[C@]12CCCCC=C1N(Cc1ccco1)C(=O)[C@H](CC(=O)NCCCCc1ccccc1)C2	5104

Later entries:
SMILES	Bead autofluor
CCCn1c(C)cc(C(=O)CN2C(=O)c3ccccc3S2(=O)=O)c1C	3682
COC(=O)c1cn(-c2nc3ccccc3s2)nn1	6538
CCOC(=O)C1(C)CCN1C(=O)c1ccc(C(C)(C)C)cc1 (configuration not stated)	3725
COc1ccc([C@H]2CC(=O)C[C@@H](CCn3cc(C(C)C)nn3)O2)cc1	5934
CCOc1ccc(CCN2C(=S)N([C@@H](Cc3ccc(O)cc3)CN3CCC[C@@H]3CN3C(=S)NC[C@@H]3CC(C)C)C[C@@H]2CC(C)C)cc1	4299
CC(C)(C)S(=O)N1Cc2cc(C(=O)N3CCc4ccccc4C3)nc(-c3cccc(-c4ccncc4)c3)c2[C@H]1CCO (some centres not stated)	6873
CC(=O)NCCNC(=O)C1(C)Cc2c(-c3cccc(NC(C)=O)c3)ccnc2O1 (configuration not stated)	3577
CCCCCCNc1ccc(C(=O)OCC)cc1	5511
O=C(NCc1cccc(C(F)(F)F)c1)c1csc([C@H]2C[C@H](O)[C@@H](CO)O2)n1	2787
CCOc1ccc(NC(=S)N2CCC(C(=O)c3ccc(OC)cc3)CC2)cc1	3067
Cc1ccc(Nc2n[nH]c(=S)s2)cc1C	3672
CCOC(=O)C1(C)CCN1C(=O)c1ccc(OC)c(C(F)(F)F)c1 (configuration not stated)	3760
CN(C)c1cccc(CNC(=O)c2ccc3nc([C@@H]4O[C@H](CO)[C@H](O)[C@H](O)[C@H]4O)[nH]c3c2)c1	3777
COC(=O)[C@]12CCCCC=C1N(Cc1ccco1)C(=O)[C@H](CC(=O)NCC1CCCCC1)C2	4682
O=C(Cc1c(-c2ccccc2)nc2ccc(Br)cn12)N1CCCC1	6789
O=C(NCc1ccc(Cl)nc1)c1csc([C@@H]2O[C@H](CO)[C@H](O)[C@H](O)[C@H]2O)n1	2840
N#CC(=C1NC(=O)c2ccccc21)c1nc2ccccc2n1CCO	3454
CC1(C)CN(Cc2cccnc2)C(=O)[C@H]1CC(=O)Nc1ccc(Br)cc1	3855
CC(=O)Nc1ccc(-c2ccnc3c2CC(C(=O)NC(C)C)O3)cc1 (configuration not stated)	3754
COc1ccc(CSc2n[nH]c(=O)[nH]c2=O)cc1	4024
O=C(Nc1cccc(S(=O)(=O)C(F)(F)F)c1)[C@H]1C[C@H](O)[C@@H](CO)O1	3568
COC(=O)C1(C)COP(=O)(Nc2ccc(OC)cc2)OC1 (configuration not stated)	5630
COc1cccc(CN2CCC2(C)C(=O)NCc2cccc(C(F)(F)F)c2)c1OC (configuration not stated)	3468
COc1cccc(-c2ccc3c(c2)N(Cc2ccccc2OC)C(=O)C(C)S3)c1 (configuration not stated)	4211
C[C@@H]1CN([C@@H](C)CO)C(=O)CCCn2nncc2CO[C@@H]1CN(C)S(C)(=O)=O	3809
CC(C)(C)OC(=O)N1CCc2onc(-c3ccc(Br)cc3)c2C1=O	3186
C[C@@H]1CN([C@@H](C)CO)C(=O)CCCn2nncc2CO[C@H]1CN(C)S(=O)(=O)c1ccc(-n2cccn2)cc1	3602
Cc1cc(-c2ccc(Br)cc2)n2nc(C)cc2n1	4325
Cc1cc(O)cc(O)c1/C=N/NC(=O)c1ccc2c(c1)OCCO2	3682
COc1cc(C(=O)NC(=S)Nc2ccc3ccccc3c2)cc(OC)c1OC	3441
CC(C=CC(O)=C1C(=O)CNC1=O)=C[C@@H](C)C1OC2(C)OC(C(=O)C3O[C@@]32C)C1C (some centres not stated)	5428
O=C1NC[C@@H](CCCCN2C[C@H](Cc3ccc(O)cc3)N(Cc3ccccc3)C(=O)C2=O)N(CCC2CCCCC2)C1=O	5878
Fc1ccc(-c2nc3ccc(Cl)cn3c2Cc2ccccc2)cc1	4272
CCOC(=O)C1c2cccc(O)c2CCN1C(C)=O (configuration not stated)	3405
CCNC(=S)Nc1ccc2c(c1)c(=O)n(C)n2Cc1ccc(Cl)cc1	3687
NC(=S)NN=Cc1nccc2c(C(F)(F)F)cccc12	3864
CC(=O)NCC1=C(c2ccc3ccccc3c2)C[C@@H]2CC[C@H]1N2Cc1ccco1	3550
CCNC(=O)c1cc2c(c(-c3cccc(-c4cc5ccccc5o4)c3)n1)[C@H](CCO)N(C(=O)NC(C)C)C2	5703
CC(C)N=C1CCCC1C(=S)SSC(=S)C1CCCC1=NC(C)C (configuration not stated)	4132
CC1CCCC(C)N1C(=O)COC(=O)c1ccccc1C(=O)c1ccccc1 (configuration not stated)	3556
COc1ccc(C(Cl)=C(C=O)c2ccc(OC)c(OC)c2)cc1OC	4144
COc1cc(CNc2ncnc3c2ncn3[C@H]2CN(Cc3cccc(C(F)(F)F)c3)C[C@@H](COC(C)=O)O2)cc(OC)c1OC	3853
O=C(CC[C@H]1O[C@@H](n2ccc(=O)[nH]c2=O)[C@H](O)[C@@H]1O)NCCN1CCOCC1	6167
CCCCC(=O)N(C)c1c(CC)nc2c(OCC3CCCCC3)cccn12	4106
CC(C)(C)OC(=O)NCc1ccc(CNC(=O)c2[nH]cnc2C(=O)Nc2ccccc2F)cc1	3832
CCCCCCCCN1C(=O)[C@H](CC(=O)NCc2cccc3ccccc23)C[C@@]2(C(=O)OC)CCCCC=C12	4634
CC(=O)Nc1ccc(C(C)=NNC(=O)C2CCCC2)cc1	3391
Cc1ccnc(Nc2cccnc2)n1	6642
C[C@]12CCC3C(CC[C@H]4C[C@@H](O)CC[C@]34C)C1C[C@H](Br)[C@@H]2O (some centres not stated)	3519
Cc1cccc(NC(=O)Nc2nnc([C@H]3C[C@H](O)[C@@H](CO)O3)s2)c1	4056

The results go on:
SMILES	Bead autofluor
Cn1ccc2c(-c3ccc(C(F)(F)F)cc3)cc3c(c21)C1CCC3C1 (configuration not stated)	5818
COC(=O)c1ccccc1NC(=O)CCCOc1cc(=O)n(C)c2ccccc12	3752
CN(Cc1ccccc1)C(=O)CCN1C(=O)c2cccc([N+](=O)[O-])c2C1=O	3920
COc1ccc(-c2cnc3c(NC=O)cc(-c4cccc(NS(C)(=O)=O)c4)cn23)cc1OC	3055
Cc1cc(CNC[C@H]2O[C@@H](n3ccc(N)nc3=O)[C@H](O)[C@@H]2O)no1	3635
CC(=O)N1Cc2cc(C(=O)NCC(F)(F)F)nc(-c3cccc(-c4cccnc4)c3)c2[C@H]1CCO	5944
CCOC(=O)[C@]12CCC=C1N(Cc1ccc(Cl)cc1Cl)C(=O)[C@H](CC(=O)NCCCN1CCCC1=O)C2	4171
Cc1cccc(S(=O)(=O)NC(=O)C2(C)CCN2C(=O)Cc2ccc(C(C)(C)C)cc2)c1 (configuration not stated)	3468
